miR-21 FLuc: raises the signal of a miR-21 reporter | Potency, µM (highest dose often 38.3 µM), inactives show at the highest dose reporter change, positive = more light | HeLa miR-21 FLuc reporter, luciferase, 48 h | AID 2288 | 340,000 tested, under 10 active; active = well fitted rising curve with a large enough effect; inconclusive = small, poorly fitted or top-dose-only effect; inactive = no such curve, though single readings can be large or run the other way;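 note: % of control where 0% means no effect; miR-21 action dims this reporter so a rising signal means less miR-21 action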
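HeLa cells endogenously expressing miR-21, stably carrying CMV-driven firefly luciferase with a downstream miR-21 binding site, 2000 cells/well. Titrations up to approximately 40 uM, 48 hours; luciferase luminescence read.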
* marks the source's active call; other numbers are inactive results; ? = inconclusive. Some of the compounds tested; count on the stated rates, not on these rows.

SMILES	miR-21 FLuc
CCc1ccc(CNC(=O)c2ccc3nc(C4CCCCC4)oc3c2)nc1	-16.1%
CCOc1ccc(OCC)c(NC(=O)c2nnn(CC(=O)Nc3cc(Cl)ccc3OC)c2N)c1	1.9%
COc1ccc(N(Cc2cccs2)C(=O)c2ccco2)cc1	10.5%
COc1ccc(OC)c(NC(=O)c2c(NCc3ccc(C)o3)sc3c2CCCCC3)c1	2.4%
Cc1nnc(N2CCN(C(=O)NC(C)C)CC2)c2nn(-c3ccccc3)c(C)c12	-7.8%
Cc1ccc(Nc2c(-c3ccc(C)s3)nc3ccccn23)cc1	-28.1%
Cc1coc2cc3oc(=O)c(CCC(=O)N4CCCCC4)c(C)c3cc12	-35.8%
Cc1cc(C)c(S(=O)(=O)NCC(c2cccs2)S(=O)(=O)c2ccccc2)c(C)c1 (stereo not given)	-8.6%
Cc1nc2ccc(S(=O)(=O)N(CC(=O)Nc3cccc(Cl)c3)Cc3ccccc3)cc2s1	16.4%
CCOC(=O)N1CCc2c(sc(NCc3ccc(OCC)cc3)c2C(=O)Nc2ccc(OC)cc2OC)C1	?
CSc1nc2c(sc3ccccc32)c(=O)n1Cc1ccc(C)cc1	-0.3%
COc1ccc(/C=C/C(=O)Nc2ccc(Cl)cc2Cl)cc1	-21.9%
COc1cc(OC)c(OC)cc1CNCCSc1nnnn1-c1ccccc1	-2.7%
Cc1ccc(NC(=O)c2c(NC(=O)c3ccccc3Cl)sc3c2CCC3)cc1	-0.2%
Cc1nn(CC(=O)NCc2ccc(N(C)C)cc2)c(=O)c2nn(-c3ccccc3)c(C)c12	-5.2%
CCCC(=O)NC1CC(=O)N(c2ccc3c(c2)OCCO3)C1 (stereo not given)	-0.2%
COC(=O)c1cccc(Nc2c(-c3cc(Br)ccc3O)nc3nc[nH]n23)c1	-2.2%
COC(=O)CC1c2cc(OC)c(OC)cc2CCN1C(=O)Nc1ccc(C)cc1Cl (stereo not given)	-1.1%
CCOC(=O)c1ccc(-c2ccc(/C=C(\C#N)C(=O)Nc3ccc(C)cc3OC)o2)cc1	-8.4%
Cc1ccc(Cl)cc1NC(=O)c1nnn(Cc2ccccc2)c1N	1.6%
COc1ccccc1NC(=O)n1ncc2c(C)cccc21	-4.3%
COc1cccc(CNC(=O)CSc2nc(=O)[nH]c3c2CCCC3)c1	-2.1%
Cc1cc(C)cc(NC(=O)c2cc(S(=O)(=O)N3CCC(C)CC3)cn2C)c1	-1.4%
O=C(Oc1ccccc1Cl)c1cc(-c2ccc3c(c2)OCCO3)on1	-24.0%
Cc1c(C(=O)Nc2ccccc2)sc2nc(-c3cc4cc(Cl)ccc4oc3=O)[nH]c(=O)c12	-31.3%
Cc1cc(C)c2nc(NC(=O)c3ccc(S(=O)(=O)N4CCc5ccccc54)cc3)sc2c1	5.4%
CN(C(=O)C1CCN(c2ncnc3c2nc2n3CCCCC2)CC1)c1ccccc1F	-1.4%
O=c1ccc2cc(S(=O)(=O)Nc3ccc(F)c(Cl)c3)ccc2[nH]1	-10.8%
CN(c1nnc(NC(=O)Nc2ccc(Br)cc2)s1)C1CCCCC1	-2.5%
CCOc1ccccc1NC(=O)C1CCN(S(=O)(=O)c2cccc3nonc23)CC1	-2.3%

Part of the list above, with values ahead of the structure.
| miR-21 FLuc | SMILES |
| --- | --- |
| -2.2% | COC(=O)c1cccc(Nc2c(-c3cc(Br)ccc3O)nc3nc[nH]n23)c1 |
| -1.1% | COC(=O)CC1c2cc(OC)c(OC)cc2CCN1C(=O)Nc1ccc(C)cc1Cl (stereo not given) |
| -8.4% | CCOC(=O)c1ccc(-c2ccc(/C=C(\C#N)C(=O)Nc3ccc(C)cc3OC)o2)cc1 |
| 1.6% | Cc1ccc(Cl)cc1NC(=O)c1nnn(Cc2ccccc2)c1N |
| -4.3% | COc1ccccc1NC(=O)n1ncc2c(C)cccc21 |
| -2.1% | COc1cccc(CNC(=O)CSc2nc(=O)[nH]c3c2CCCC3)c1 |

The list continues:
SMILES	miR-21 FLuc
COC(=O)C(CCSC)NC(=O)Cn1ncc2c([nH]c3ccccc32)c1=O (stereo not given)	-4.3%
Cc1ccc(S(=O)(=O)c2nc(-c3ccco3)oc2SCc2ccc(F)cc2)cc1	?
CN1CCN(C2(CNC(=O)c3ccc(C(C)(C)C)cc3)CCCCC2)CC1	-23.3%
Cc1ccc(-n2c3nc(=O)[nH]c(=O)c-3cc3c(Cl)cccc32)cc1	23.8%
CCC(C(=O)NCCc1cc(OC)ccc1OC)n1nc(C)c2sc3ccccc3c2c1=O (stereo not given)	-15.8%
CC(=O)Nc1ccc(S(=O)(=O)N2CCN(c3ccccc3)CC2)cc1	-0.7%
Cc1cc(C)cc(NC(=O)CSc2oc(-c3cccs3)nc2S(=O)(=O)c2ccc(Br)cc2)c1	7.9%
Cc1ccc(-n2nc(C(=O)Nc3ccc(Cl)cn3)c3c4ccccc4n(C)c3c2=O)cc1	-0.2%
CCOC(=O)CCn1nc(C)c2c(C)n(-c3ccccc3)nc2c1=O	-3.2%
COc1ccc(OC)c(NC(=O)Cn2c(=O)n(-c3cccc(C)c3)c(=O)c3c2c2cc(C)ccc2n3C)c1	6.3%
CCCCCSc1nnc2c(n1)OC(CC)Nc1ccc(Br)cc1-2 (stereo not given)	0.1%
CCCNC(=O)CCc1c(C)nc2nc(CNC(=O)c3ccccc3)nn2c1C	-5.3%
Cc1ccc2c(c1)-c1c(c(C(=O)N3CCN(c4cc(Cl)ccc4C)CC3)nn1C)CS2	-3.0%
CC(C)Oc1ccc(CNC(=O)Cn2c(-c3cccs3)cc3ccccc32)cc1	3.6%
Cc1ccc(C)c(NC(=O)CSc2nc(-c3ccccc3)cc(=O)[nH]2)c1	-3.6%

5 entries already listed, arranged by their value in miR-21 FLuc, descending.
SMILES | miR-21 FLuc
Cc1cc(C)cc(NC(=O)CSc2oc(-c3cccs3)nc2S(=O)(=O)c2ccc(Br)cc2)c1 | 7.9%
COc1ccc(OC)c(NC(=O)Cn2c(=O)n(-c3cccc(C)c3)c(=O)c3c2c2cc(C)ccc2n3C)c1 | 6.3%
CCOC(=O)CCn1nc(C)c2c(C)n(-c3ccccc3)nc2c1=O | -3.2%
Cc1ccc(C)c(NC(=O)CSc2nc(-c3ccccc3)cc(=O)[nH]2)c1 | -3.6%
CCC(C(=O)NCCc1cc(OC)ccc1OC)n1nc(C)c2sc3ccccc3c2c1=O (stereo not given) | -15.8%

The list continues:
SMILES	miR-21 FLuc
CCOc1ccccc1N1CC(c2nc3ccccc3n2CCCOc2ccccc2OC)CC1=O (stereo not given)	-10.0%
Cn1cc(CCCC(=O)NCc2ccccc2Cl)c2ccccc21	-1.6%
Cc1ccc(Cl)cc1N1CCN(C(=O)c2cc(S(=O)(=O)N3CCC(C)CC3)cn2C)CC1	17.5%
COc1ccc(-c2nnc(SCC(=O)NCc3ccc(C)cc3)nc2-c2ccc(OC)c(OC)c2)cc1OC	?
Cc1ccccc1Nc1cc(C(=O)NC2CCCC2)c2ccccc2n1	-1.7%
COCCCNC(=O)c1ccc(-n2c(-c3ccccc3)cc3c2CCCC3)cc1	3.1%
CCN(CC)C(=O)c1sc2c(c1C)c(=O)n(Cc1ccccc1)c(=O)n2Cc1ccccc1C	12.9%
CC(C)Nc1nc2c(-c3cccc(Br)c3)nnn2c2ccccc12	-40.0%
O=C(NCc1cccc(Cl)c1)C1CCCN(c2ncnc3onc(-c4ccc(F)cc4)c23)C1 (stereo not given)	18.9%
Cc1nn(CC(=O)N2CCN(c3ccccc3F)CC2)c(=O)c2cccn12	0.8%
COc1ccccc1N1CCN(C(=O)c2ccc3c(c2)N(Cc2ccccc2)C(=O)c2ccccc2S3(=O)=O)CC1	17.2%
Cc1nnc(N2C(=O)C(=O)/C(=C(/O)c3ccc4c(c3)OCCO4)C2c2ccc([N+](=O)[O-])cc2)s1 (stereo not given)	-13.4%
COc1ccc(NC(=O)CCc2nc3cccnc3n2-c2ccccc2)c(OC)c1	-4.1%
CC1CCN(C(=O)CSc2c3c(nc4cc(Cl)ccc24)CCCC3)CC1	?
COc1cccc(-n2cc(C(=O)Nc3cc(C)c(Cl)cc3OC)c3ccccc3c2=O)c1	5.0%
COc1cc(Cl)c(NC(=O)c2cc(CN3CCCC3)on2)c(OC)c1	-20.0%
O=C(Nc1sc2c(c1C(=O)Nc1ccc(Cl)cc1)CCCC2)c1cccs1	-0.6%
CC(=O)N1CCc2c(sc3c2c(=O)n(Cc2ccccc2)c(=O)n3Cc2ccccc2F)C1	-7.8%
COc1ccccc1N1CCN(c2nc3ccc(C)cc3nc2-n2nc(C)cc2C)CC1	6.5%
CCN(CC)CCNC(=O)c1ccc2c(c1)sc1nc(-c3ccc(F)cc3)cn12	-0.4%
Cc1cc(C)cc(NC(=O)Cn2cc(C(=O)c3ccccc3)c(=O)c3ccc(C)nc32)c1	0.0%
Cc1cccc(C)c1NC(=O)c1nc(S(C)(=O)=O)ncc1N(Cc1ccc(F)cc1)Cc1ccco1	1.7%
CC(=O)N1c2ccc(S(=O)(=O)NCCC(=O)Nc3ccc(C)cc3Br)cc2CC1C (stereo not given)	11.4%
O=C(Nc1ccccc1)c1ccc(Cl)c(S(=O)(=O)Nc2ccccc2)c1	14.8%
COc1ccc(CNC(=O)c2cn(-c3cccc(OC)c3)c(=O)c3ccccc23)cc1	-1.5%
O=C(c1ccc2c(c1)N(Cc1ccccc1Cl)C(=O)c1ccccc1S2)N1CCCC1	9.7%
Cc1cc(Nc2cccc(Cl)c2)nc2ccc(NC(=O)Cc3ccc(Cl)cc3)cc12	?
COc1ccc(NC(=O)c2ccc(NC(=O)CCS(=O)(=O)c3cccs3)cc2)cc1Cl	-5.8%
O=C(NC1CCCC1)c1ccc2c(c1)N(Cc1ccccc1F)C(=O)c1ccccc1S2	-1.1%
CSc1cccc(Nc2nc3c(S(=O)(=O)c4ccccc4)nnn3c3ccc(Cl)cc23)c1	1.0%
Cc1ccc(Cn2c(=O)n(-c3cc(C)cc(C)c3)c(=O)c3oc4ccccc4c32)cc1	-3.1%
Cc1ccc(OCc2cc(=O)n3cc(C)sc3n2)c(NC(=O)c2ccco2)c1	-0.2%
Cc1ccc(CNC(=O)C(C)n2c(=O)cc(C(F)(F)F)c3c(C)nn(C)c32)cc1 (stereo not given)	5.7%
CCc1ccc(NC(=O)CSc2nc(-c3ccc(C)cc3)nc3c2Cc2c(CO)cnc(C)c2O3)cc1	-4.9%
COc1ccc2c(C)c(CCC(=O)NCc3ccc(Cl)cc3)c(=O)oc2c1C	-11.9%
CCOC(=O)c1ccc(Nc2ncnc3c2cnn3-c2cccc(Cl)c2)cc1	-17.8%
CCOc1ccc(NC(=O)Cn2cc(C(=O)c3ccc(F)cc3)c(=O)c3cc4c(cc32)OCCO4)cc1	7.0%
COC(=O)c1ccccc1NC(=O)c1cc2c(s1)-c1ccccc1OC2	-4.9%
COc1cc(NC(=O)CSc2nnc(C)n3c2cc2oc(C)cc23)cc(OC)c1	3.4%
O=C(NCCCN1CCN(c2cccc(Cl)c2)CC1)c1sc2ncccc2c1-n1cccc1	11.8%
COC(=O)c1c(NC(=O)CS(=O)(=O)c2ccc(C)cc2)sc2c1CCCCC2	-7.1%
CCCSc1oc(-c2cccs2)nc1S(=O)(=O)c1ccc(Cl)cc1	14.9%
O=C(Cn1nnc2sc3c(c2c1=O)CCCC3)Nc1ccc(F)c(Cl)c1	-2.5%
COc1cc(NC(=O)c2cccc(Cl)c2Cl)ccc1NC(=O)c1cc2ccccc2o1	-9.3%
COc1ccc(-c2cc(C(F)(F)F)nc(S(=O)(=O)CCCC(=O)Nc3ccccc3C(F)(F)F)n2)cc1OC	?
COc1ccc(-n2ncc(C(=O)Nc3ccc4c(c3)OCO4)c2C2CCN(C(=O)OC(C)(C)C)CC2)cc1	10.4%

Exported with bars between the fields: three of the compounds above
smiles | miR-21 FLuc
CCCSc1oc(-c2cccs2)nc1S(=O)(=O)c1ccc(Cl)cc1 | 14.9%
COc1ccc(-n2ncc(C(=O)Nc3ccc4c(c3)OCO4)c2C2CCN(C(=O)OC(C)(C)C)CC2)cc1 | 10.4%
COc1cc(NC(=O)c2cccc(Cl)c2Cl)ccc1NC(=O)c1cc2ccccc2o1 | -9.3%

Compound activity: PubChem BioAssay, National Center for Advancing Translational Sciences (NCATS)
